From PubChem
GAA spleen mod: lysosomal alpha-glucosidase (human) modulation. P10253. human spleen homogenate, 4-MU-alpha-glucoside fluorescence. AID 2112. Potency, µM (doses to about 79.9 µM), for the others: top-dose activity change, negative = inhibition, most hits filed as inhibitors. 240,000 tested, 0.006% active;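 further: 0% = enzyme with vehicle and -100% = no enzyme basal signal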
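Human spleen homogenate (1 ug) incubated with compounds and 1 mM 4-methylumbelliferyl-alpha-D-glucopyranoside in pH 5.0 citrate/phosphate buffer, 37 C, 40 min. Stopped at pH 10; 4-MU fluorescence (Ex 365/Em 440 nm); AC50 by Hill fit.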
aGal spleen mod: inhibitors or activators of human alpha-galactosidase in spleen homogenate. Potency, µM (doses to about 80 µM), for inactives: top-dose activity change, negative = inhibition, hits mostly inhibitors. 240,000 tested, 0.008% active. human spleen homogenate, 4MU-alpha-Gal fluorescence, 40 min;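 further: 0% = enzyme with vehicle and -100% = no enzyme basal signal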
Target sequence (P06280 32-429 limits assumed): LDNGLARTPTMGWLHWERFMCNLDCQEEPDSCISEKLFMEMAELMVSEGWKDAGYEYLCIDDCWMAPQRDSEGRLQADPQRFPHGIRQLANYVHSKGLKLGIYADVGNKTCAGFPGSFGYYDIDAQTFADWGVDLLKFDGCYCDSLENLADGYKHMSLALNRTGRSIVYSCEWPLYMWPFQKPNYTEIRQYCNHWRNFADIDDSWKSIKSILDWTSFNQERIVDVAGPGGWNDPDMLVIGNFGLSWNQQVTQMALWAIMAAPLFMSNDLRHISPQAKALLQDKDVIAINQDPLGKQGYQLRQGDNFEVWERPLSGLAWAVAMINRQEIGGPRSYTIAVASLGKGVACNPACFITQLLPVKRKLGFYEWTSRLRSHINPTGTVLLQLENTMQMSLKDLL
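Fluorogenic readout (Ex 365/Em 440 nm) of 4-methylumbelliferone released from 1 mM 4-MU-alpha-galactoside by spleen homogenate, 40 min at 37C, pH 5.0. Data normalized to no-enzyme and enzyme controls; Hill-equation AC50 from compound titrations.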
GAA inhib: inhibitors of human lysosomal alpha-glucosidase. P10253. purified human GAA, 4-MU-alpha-glucoside fluorescence. Potency, µM (doses to about 76.9 µM), for inactives: at the highest dose activity change, negative = inhibition, hits mostly inhibitors. 200,000 tested, 0.005% active;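 further: plate controls were uninhibited enzyme wells for no effect and no-enzyme background for full effect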
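qHTS format, compound range up to 77 uM. Human lysosomal enzyme at 4 nM, 400 uM 4-MU glucoside substrate, pH 5.0, 20 min room temperature; fluorescence after alkaline stop gives activity normalized to controls.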
GAA glycogen mod: inhibitors or activators of human alpha-glucosidase glycogen cleavage | P10253 | recombinant GAA, glycogen substrate, Amplex Red glucose oxidase fluorescence | Potency, µM (doses to about 76.4 µM), without a hit: top-dose activity change, negative = inhibition, actives largely listed as inhibitors | 300,000 tested, 0.38% active | AID 2100;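 further: 0% = full enzyme reaction and -100% = no-enzyme basal signal; the screen sought inhibitors and activators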
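qHTS, 1536-well; enzyme 4 nM final; cpd up to 77 uM; substrate bovine liver glycogen 30 ug; 50 mM citrate/phosphate pH 5.0, 0.01% Tween-20; 37 C, 40 min; Amplex Red detection 45 min RT; Hill fit → AC50.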
Numbers without * were called inactive; ? = inconclusive; . = no result given; & = joins results of further samples; [ ] = another dose, or the depositor's remark. The call rests on the fitted dose curve; in most records, active means well fitted curve in the direction sought with a large enough effect; inconclusive means small, poorly fitted or top-dose-only effect, or another doubt; inactive means no such curve, though single readings can be large; an effect the other way counts as inactive or inconclusive. Potency means the concentration at half of the fitted maximal effect. The list is partial. The share of hits here may be higher or lower than overall.

The opening four records, to show the layout:
(1) CCOP(=S)(OCC)SCn1c(=O)oc2cc(Cl)ccc21
(2) C[C@@H](COc1ccccc1)N(CCCl)Cc1ccccc1
(3) O=c1[nH]c2ccccc2n1C1CCN(CCCC(c2ccc(F)cc2)c2ccc(F)cc2)CC1
(4) O=C(O)/C=C\C(=O)O

compound no.,1,2,3,4
GAA spleen mod,0%,3%[29.1 µM],3%,7%
aGal spleen mod,8%,5%[29.1 µM],3%,4%
GAA inhib,.,.,9%[15.4 µM],.
GAA glycogen mod,.,.,3%,.

The listing, previewed entries included:
(1) CCOP(=S)(OCC)SCn1c(=O)oc2cc(Cl)ccc21
(2) C[C@@H](COc1ccccc1)N(CCCl)Cc1ccccc1
(3) O=c1[nH]c2ccccc2n1C1CCN(CCCC(c2ccc(F)cc2)c2ccc(F)cc2)CC1
(4) O=C(O)/C=C\C(=O)O
(5) NC(N)=NC(=O)c1nc(Cl)c(N)nc1N

compound no.,1,2,3,4,5
GAA spleen mod,0%,3%[29.1 µM],3%,7%,?
aGal spleen mod,8%,5%[29.1 µM],3%,4%,?
GAA inhib,.,.,9%[15.4 µM],.,?
GAA glycogen mod,.,.,3%,.,-4%

(6) CCOC(=O)c1cn2nc(OP(=S)(OCC)OCC)cc2nc1C
(7) CCOP(=S)(OCC)Oc1ccc2c(C)c(Cl)c(=O)oc2c1
(8) C[C@H]1C[C@@H](C)C(=O)[C@@H]([C@H](O)CC2CC(=O)NC(=O)C2)C1
(9) CC(COc1ccccc1)N(CCCl)Cc1ccccc1 (stereo unspecified)

compound no.,6,7,8,9
GAA spleen mod,6%,-6%,8%,-4%&-13%&4%&-3%&11%&-11%
aGal spleen mod,9%,8%,6%,?
GAA inhib,-2%,.,.,3%[15.4 µM]
GAA glycogen mod,5%,.,7%,6%

Single records, as listed above:
CCOP(=S)(OCC)Oc1ccc2c(C)c(Cl)c(=O)oc2c1 is listed as GAA spleen mod = -6%; aGal spleen mod = 8%; GAA inhib = .; GAA glycogen mod = .
CC(COc1ccccc1)N(CCCl)Cc1ccccc1 (stereo unspecified) is listed as GAA spleen mod = -4%&-13%&4%&-3%&11%&-11%; aGal spleen mod = ?; GAA inhib = 3%[15.4 µM]; GAA glycogen mod = 6%
